Bioassay records deposited in PubChem BioAssay by Johns Hopkins Ion Channel Center.
KCNQ2 block: KCNQ2 potassium channel inhibitors, primary screen, cell-based, CHO-K1, FluxOR thallium flux, B-score (AID 2156). B-score at 10 µM. 20 min; stronger effect = lower value; only compounds with negative scores are shown here; some inactives read as strong as hits. 310,000 compounds, 1.1% hits;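 active = fluorescence ratio B-score at most minus 3 library SDs, with starting brightness B-score within 2 library SDs, cut at about -5.5 in these data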
Target sequence (O88943 whole entry, looked up): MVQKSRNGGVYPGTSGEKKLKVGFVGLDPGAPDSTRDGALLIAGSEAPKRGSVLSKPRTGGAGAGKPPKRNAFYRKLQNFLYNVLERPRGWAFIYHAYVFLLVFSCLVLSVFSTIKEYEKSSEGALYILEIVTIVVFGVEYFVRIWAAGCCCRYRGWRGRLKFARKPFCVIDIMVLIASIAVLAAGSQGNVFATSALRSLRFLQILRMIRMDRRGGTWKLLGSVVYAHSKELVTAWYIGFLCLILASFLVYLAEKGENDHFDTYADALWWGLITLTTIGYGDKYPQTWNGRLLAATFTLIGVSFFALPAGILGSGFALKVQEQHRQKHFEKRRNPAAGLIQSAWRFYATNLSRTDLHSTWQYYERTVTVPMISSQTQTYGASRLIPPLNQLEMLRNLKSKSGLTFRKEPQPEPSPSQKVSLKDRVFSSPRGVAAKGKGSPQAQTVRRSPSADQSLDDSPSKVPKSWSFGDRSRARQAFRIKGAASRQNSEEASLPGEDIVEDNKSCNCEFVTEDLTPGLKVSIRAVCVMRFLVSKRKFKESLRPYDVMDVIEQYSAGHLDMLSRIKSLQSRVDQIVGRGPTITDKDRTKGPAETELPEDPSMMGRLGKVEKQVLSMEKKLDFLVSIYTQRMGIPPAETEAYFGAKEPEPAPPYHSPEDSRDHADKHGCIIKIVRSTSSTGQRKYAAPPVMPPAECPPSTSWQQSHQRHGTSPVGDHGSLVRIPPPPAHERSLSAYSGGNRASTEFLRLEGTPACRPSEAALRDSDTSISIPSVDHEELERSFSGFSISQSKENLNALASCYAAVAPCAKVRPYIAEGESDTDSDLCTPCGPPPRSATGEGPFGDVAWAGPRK
KCNQ2 block baseline: recorded beside KCNQ2 block, whose call it bears; B-score; measured here: initial fluorescence intensity artifact check;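 brightness before thallium and not channel activity; 0 = typical well and far values either way flag optical interference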
Numbers without * were called inactive; i = inactive. This is a subset. The share of hits here may be higher or lower than overall.

SMILES	KCNQ2 block	KCNQ2 block baseline
Cc1cccc(N2CCCn3c2nc2c3c(=O)n(CCN3CCOCC3)c(=O)n2C)c1	i	4
Cn1cc(SCC(=O)NC2CCCC2)c2ccccc21	i	-0.89
COc1ccc(Cl)cc1NC(=O)CCN1C(=O)C2CC=CCC2C1=O (configuration not stated)	i	0.51
COc1cc(NCCC(=O)c2cccs2)c(OC)cc1Cl	i	-1.4
NC(=O)/C(=C/c1ccco1)NC(=O)/C=C/c1ccccc1	i	-1.1
CC(=O)N1CCC(N(CCN2CCOCC2)C(=S)Nc2ccc(C)c(C)c2)CC1	i	1.8
CN(C)CCNC(=O)CNC(=S)N(CCCN1CCOCC1)Cc1cccs1	i	-0.52
Cc1ccc(C(=O)c2c(NC(=O)c3ccccc3C)sc(C)c2C)cc1	-11*	0.28*
CC(C)C(=O)Nc1nnc(SCC(=O)NC2CC2)s1	i	1.2
O=C(CCc1ccccc1)Nc1cccnc1	i	2.8
COc1ccc(-c2cc(C(=O)N(C)Cc3ccccc3)c3ccccc3n2)cc1	i	1.1
CCOc1ccc(-n2c(N)c(-c3nc4ccccc4n3C)c3nc4ccccc4nc32)cc1	i	0.32
Cc1ccc(Nc2nnc(SCc3cc(=O)n4cc(C)ccc4n3)s2)cc1	i	0.22
CC(C)c1ccc(C(C(=O)NC2CCCC2)N(C(=O)CNC(=O)c2ccco2)c2cccnc2)cc1 (configuration not stated)	i	-1.1
COc1ccccc1N1CCN(C(=O)c2cc3cc(Cl)ccc3[nH]2)CC1	i	-0.11
COc1ccc(OC)c(NC(=O)c2cc(-c3c(C)cc(C)cc3O)n[nH]2)c1	i	-0.11
NC1=NN=C(N2N=C(c3ccco3)CC2(O)C(F)(F)F)n2ncnc2C1 (configuration not stated)	i	0.08
Cc1cc(N2CCN(C)CC2)ccc1NC(=O)c1ccc(-c2ccc(Cl)cc2)o1	i	-2.1
COc1cccc(C(=O)Nc2ccc3[nH]ncc3c2)c1	i	0.02
COCCCN1CN(S(=O)(=O)c2ccc(C)cc2C)c2nc3ccccc3nc21	i	0.16
O=C1CNC(=O)N1CC(=O)N1CCCc2ccccc21	i	0.25
O=C(CNC(=O)c1ccc(S(=O)(=O)N2CCCC2)cc1)N/N=C/c1ccc(Cl)cc1Cl	i	-0.24
Cc1ccnc(NS(=O)(=O)c2ccc(NC(=O)C3C4C=CC(C4)C3C(=O)O)cc2)n1 (configuration not stated)	i	0.47
CCC(C)C1=CC(=Nc2c(C)n(C)n(-c3ccccc3)c2=O)C=C(C(C)CC)C1=O (configuration not stated)	i	0.14
Fc1cccc(-n2ncc(-c3nnnn3-c3ccccc3)c2C(F)(F)F)c1	i	-0.56
CC(/C=C/c1ccccc1)=N\NC(=O)c1ccncc1	i	0.08
CC(C)CC(O)(c1ccccc1)C(CN1CCOCC1)c1ccccc1 (configuration not stated)	i	1.4
O=C(Cn1nc(-c2ccccc2)nc1-c1ccccc1)OC1CCCCC1	-6.1*	1.4*
O=C(NC(=S)Nc1cccc2ncccc12)c1ccco1	i	0.96
Cc1nn(-c2ccccc2)nc1CNS(C)(=O)=O	i	0.19
CCN(CC(=O)Nc1ccccc1C(F)(F)F)C(=O)CSCc1c(C)noc1C	i	-0.29
O=C(CN1C(=O)COc2ccccc21)N(CCCN1CCOCC1)CC1CC=CCC1 (configuration not stated)	i	1.3
Cc1ccccc1C(=O)NC(CC(C)C)C(=O)Nc1ccc(S(N)(=O)=O)cc1 (configuration not stated)	i	-3.6
COc1ccc(C)cc1S(=O)(=O)N1CCC(C(=O)N2CCN(C)CC2)CC1	i	1.1
COc1ccc(/C=C/CN2CCC(Oc3ccc(C(=O)N4CCCCC4)cc3)CC2)cc1	i	0.08
Clc1ccc(SCCCCN2CCOCC2)cc1	i	1.7
O=C(CSc1nn(-c2ccc(F)cc2)c(=S)s1)NC(=O)NCc1ccco1	i	-0.27
COC(=O)c1ccc(OC)c(-c2c(OC)cc(OC)cc2OC)c1	i	0.9
Cc1ccc(C(NC(=O)Nc2ccccn2)C(Cl)(Cl)Cl)cc1F (configuration not stated)	i	-0.17
Cc1cc(C(=O)CSc2nnc(C3COc4ccccc4O3)n2C)c(C)n1-c1ccc(F)cc1 (configuration not stated)	i	-1
COC(=O)c1ccc2c(=O)n(CC3CCCO3)c(SCC(=O)Nc3ccccc3OC)nc2c1 (configuration not stated)	i	-0.65
CS(=O)(=O)N(CCc1ccccc1)CC(=O)Nc1ccc(OCc2ccccc2)cc1	i	-0.64
Nc1ccc2nc3n(c(=O)c2c1)CCC3	i	-0.49
C#CCOCCOCCOCCNc1nc(N2CCOCC2)nc(N2CCN(C(=O)[C@H](Cc3ccc(O)cc3)n3cc([C@@H](N)CC(C)C)nn3)CC2)n1	i	1.6
CCOc1ccc(CNC(=O)C2Cc3cc(S(=O)(=O)N4CCCCC4)ccc3N2C(C)=O)cc1 (configuration not stated)	i	1.7
Cc1nn(CC(=O)NNC(=S)Nc2ccccc2)c(C)c1[N+](=O)[O-]	i	-0.04
Cc1ccc(S(=O)(=O)Nc2cc(C(=O)N3CCOCC3)ccc2N2CCCCC2)cc1	i	-0.72
COC(=O)c1ccccc1NC(=O)CN(C)S(=O)(=O)c1ccc(OC)c(C)c1	i	0.09
COC(CNS(=O)(=O)c1cc2c3c(c1)CCN3C(=O)CC2)OC	i	1.8
O=C(NCCC1=CCCCC1)C1CCN(C(=O)c2ccc(Cl)cc2)CC1	i	-2
CC1CCCC(NC(=O)COC(=O)c2ccccc2[N+](=O)[O-])C1C (configuration not stated)	i	-1
Cc1cc2cc(CNC(=O)NC3CCCCC3)ccc2n1C	i	-1
O=[N+]([O-])c1ccc(OCC(O)CN2CCN(c3ccccc3F)CC2)cc1 (configuration not stated)	i	0.47
NS(=O)(=O)c1ccc(CCNC(=O)CCC2COc3ccccc3O2)cc1 (configuration not stated)	i	0.47
Cc1nc(NC(=O)c2ccccc2)sc1C1(C)CC(c2ccccc2F)=NO1 (configuration not stated)	i	1.1
CCOC(=O)N1CCN(C(=O)CN(C2CCCCC2)S(=O)(=O)c2ccc(C)cc2)CC1	i	-1.1
COc1cccc(C(=O)NCCSCc2ccccc2Cl)c1	i	2.2
Cc1cc(CNC(=O)CCc2nnc(CCCc3ccccc3)o2)nn1C	i	-0.39
COc1cc2c(cc1OC)C(c1ccccc1)N(S(C)(=O)=O)CC2 (configuration not stated)	i	1.6
Cc1ccc(-c2nc(NCc3cccnc3)c3ccccc3n2)cc1	i	-0.07

Some of the entries so far, with values ahead of the structure.
KCNQ2 block	KCNQ2 block baseline	Molecule
i	1.8	COC(CNS(=O)(=O)c1cc2c3c(c1)CCN3C(=O)CC2)OC
i	-2	O=C(NCCC1=CCCCC1)C1CCN(C(=O)c2ccc(Cl)cc2)CC1

Continuation:
SMILES	KCNQ2 block	KCNQ2 block baseline
CS(=O)(=O)N(CC(=O)Nc1ccccc1C(=O)N1CCOCC1)c1ccc2c(c1)OCO2	i	0.93
CN(C(=O)C(C)(C)C)C1c2c(ccc3ccccc23)OCC1CO (configuration not stated)	i	0.84
Cc1ccc(OCCCCn2cnc3ccccc32)cc1	i	1.9
COc1ccc(OCCCC(=O)Nc2nncs2)cc1	i	1.2
Cc1nn(C)c(C)c1NC(=O)c1cnn2c(C(F)F)cc(-c3ccccc3)nc12	i	0.03
COc1ccc(N2CCN(CC(=O)NCc3ccc(Cl)cc3)CC2)cc1	i	1.6
O=C(NCc1ccc(Cl)cc1)C(=O)c1cn(CC(=O)N2CCOCC2)c2ccccc12	i	0.29
N/C(=N\O)c1ccc(NC(=O)c2cccs2)cc1	i	-0.98
COc1ccc(Nc2ncnc3c2cnn3Cc2ccccc2)cc1	i	0.23
COc1ccc(NC(=O)C2(N(C(=O)Cn3nnnc3N)c3ccc(OC)cc3)CCCCC2)cc1	i	-0.03
O=C(NNC(=O)c1ccccc1OCc1ccc(F)cc1)c1ccccc1O	i	1.3
C/C(=N/NC(=O)CNC(=O)Cc1ccccc1)c1ccco1	i	1.4
Cc1ccc(S(=O)(=O)N2CCN(C(=O)C3CCN(C(=O)c4ccc(F)cc4)CC3)CC2)c(C)c1	i	0.99
Cc1cc(SCC(=O)c2ccc3c(c2)OCO3)nc2ccccc12	i	-0.87
COC(=O)COc1ccc(S(=O)(=O)NCc2ccco2)cc1	i	1.8
BrC(=C\c1ccccc1)/C=N/n1cnnc1	i	-2.2
CCCCNC(=O)C1CCCN(S(=O)(=O)CC)C1 (configuration not stated)	i	0.9
Cn1nccc1-c1cc(Cl)cc(Cl)c1O	i	0.47
Cc1ccnc(SCc2cc(=O)c(OC(=O)c3ccc(Cl)c([N+](=O)[O-])c3)co2)n1	i	0.62
O=C(COc1ccccc1[N+](=O)[O-])N/N=C/c1ccc(O)c([N+](=O)[O-])c1	i	0.68
COc1ccc2c(-c3ccccc3)cc(SCC(=O)N(C)C)nc2c1	i	0.13
C=CCN1CCN(C(=O)c2cc3c(s2)CCC(CC)C3)CC1 (configuration not stated)	i	1.3
CC(C)C(c1nnnn1Cc1ccc(F)cc1)N1CCN(C(=O)c2ccco2)CC1 (configuration not stated)	i	-0.76
CCCc1cc(=O)oc2c(C)c(OCC(=O)NCCCN3CCOCC3)ccc12	i	0.89
C/C(=C\C(=O)c1ccccc1)NCc1ccc(F)cc1	i	1.5
O=S(=O)(c1ccc(F)cc1)N1CCN(C(=S)NCC2CCCO2)CC1 (configuration not stated)	i	-0.24
COC(C(=O)Nc1ccccc1F)c1ccccc1 (configuration not stated)	i	1.4
COCCNC(=O)/C(C#N)=C/c1ccc(C(=O)O)cc1	i	-1.2
CCOC(=O)C1CCCCN1Cc1cc(Cl)ccc1O (configuration not stated)	i	-1.4
CCCOc1ccc(CSc2nc3ccccc3[nH]2)cc1	i	-0.05
O=C(/C=C/c1ccccc1Cl)Nc1cccc(O)c1	i	0.77
CCOc1cc(/C=N/NC(=O)CNc2ccc(C)cc2)ccc1OC(=O)c1ccccc1	i	-1.2
Cc1ccc2[nH]c3c(c2c1)CN(C(=O)CN1CCN(c2ccccc2F)CC1)CC3	i	-0.36
C[C@H]1CCC(=O)N([C@H](CSc2ccccc2)Cc2ccccc2)CC1	i	-0.08
O=C(N/N=C/c1cccs1)c1cccnc1	i	0.7
Cc1ccc(C2N(c3cccc(Cl)c3)C(=O)N3CCCN23)cc1 (configuration not stated)	i	0.58
O=C(NNc1nc(-c2ccc(Br)cc2)cs1)c1ccco1	i	-1.1
CCOC(=O)c1ccccc1NC(=O)c1ccc2c(SCC(=O)O)c3c(nc2c1)CCCC3	i	-0.22
CC(C)=CC(=O)OCC(=O)Nc1cc([N+](=O)[O-])ccc1F	i	-0.96
CCOC(=O)c1ccc(NC(=O)c2ccccc2)cc1	i	-1.2

7 compounds drawn at random from those above, as already listed:
SMILES	KCNQ2 block	KCNQ2 block baseline
CCOc1cc(/C=N/NC(=O)CNc2ccc(C)cc2)ccc1OC(=O)c1ccccc1	i	-1.2
O=C(/C=C/c1ccccc1Cl)Nc1cccc(O)c1	i	0.77
CC(C)C(c1nnnn1Cc1ccc(F)cc1)N1CCN(C(=O)c2ccco2)CC1 (configuration not stated)	i	-0.76
CCCOc1ccc(CSc2nc3ccccc3[nH]2)cc1	i	-0.05
CCCc1cc(=O)oc2c(C)c(OCC(=O)NCCCN3CCOCC3)ccc12	i	0.89
CCOC(=O)C1CCCCN1Cc1cc(Cl)ccc1O (configuration not stated)	i	-1.4
COc1ccc2c(-c3ccccc3)cc(SCC(=O)N(C)C)nc2c1	i	0.13

Carrying on.
SMILES	KCNQ2 block	KCNQ2 block baseline
Clc1ccc(CSc2nnc(-c3ccc4c(c3)OCO4)o2)cc1	i	0.51
Cc1c2cnn(CC(=O)NCCCN3CCCCC3)c(=O)c2c(C)n1Cc1ccccc1	i	-1.4
Clc1ccc(Sc2cc(N3CCOCC3)nc(-c3ccccc3)n2)cc1	i	0.45
CCOC(=O)c1c(NC(=O)CSc2nnc(CNc3ccc(C)cc3C)o2)sc(C)c1C	i	0.82
Cn1ccnc1SCc1cccc([N+](=O)[O-])c1	i	-1.5
CCN(CC)C(=O)CP(=O)(c1ccccc1)c1ccccc1	i	0.71
O=C(NCc1cccc(F)c1)c1noc2c1CCCC2	i	0.64
CCCN(CC(=O)Nc1ccc(C(N)=O)cc1)CC(=O)Nc1ccccc1C	i	0.54
CC(C)NC(=O)CN1CCN(C(=O)c2ccc3oc(CCCc4ccccc4)nc3c2)CC1	i	-0.67
Cc1c(C(=O)N/N=C/c2cccnc2)sc(=S)n1C	i	-3
Clc1ccc(SCc2cn3ccsc3n2)cc1	i	-0.15
O=[N+]([O-])c1cc([N+](=O)[O-])c(Oc2cc(Cl)ccc2Cl)cc1NC1CCCCCCC1	i	1.7
CN(C(=O)c1cc2sccc2n1C)C1CCCCC1	i	0.06
Cc1cc(O)ccc1Nc1nc(-c2sc(N)nc2C)cs1	i	0.87
COc1ccccc1NNC(=O)c1cc(C(C)(C)C)nn1Cc1ccccc1	i	-0.2
O=C(CCc1nnc(CCC2CCCCC2)o1)NCc1ccon1	i	2.2
CC(=O)Nc1ccc(S(=O)(=O)N2CCC(C(=O)O)(c3ccccc3)CC2)cc1	i	-3
O=C(NCc1ccccc1C(F)(F)F)C1CCC(=O)N(C2CCCCCC2)C1 (configuration not stated)	i	-0.05
Cc1ccn2c(-c3n[nH]c(=S)n3C)c(C)nc2c1	i	3
Cc1nnc(SCC(=O)Nc2nc3ccccc3s2)n(N)c1=O	i	1.6
c1ccc(-c2ccnc3nc(-n4cccc4)nn23)cc1	i	-1.8
CN(CC(=O)O)S(=O)(=O)c1cc(Cl)ccc1Cl	i	0.1

Some values from the list.
Under KCNQ2 block baseline, COc1ccccc1NNC(=O)c1cc(C(C)(C)C)nn1Cc1ccccc1 has -0.2
Under KCNQ2 block baseline, CC(=O)Nc1ccc(S(=O)(=O)N2CCC(C(=O)O)(c3ccccc3)CC2)cc1 has -3
Under KCNQ2 block baseline, c1ccc(-c2ccnc3nc(-n4cccc4)nn23)cc1 has -1.8
Under KCNQ2 block baseline, Cc1ccn2c(-c3n[nH]c(=S)n3C)c(C)nc2c1 has 3
Under KCNQ2 block baseline, CC(C)NC(=O)CN1CCN(C(=O)c2ccc3oc(CCCc4ccccc4)nc3c2)CC1 has -0.67
